Screening results deposited in PubChem by several laboratories.
Rce1 inh: yeast Rce1p protease inhibitors, primary screen, biochemical, fluorescence, cell-free homogeneous; CAAX prenyl protease 2 (Saccharomyces cerevisiae (strain ATCC 204508 / S288c)), Q03530; yeast membranes, quenched prenylated peptide cleavage fluorescence; calls only; hit rate 0.27% among 290,000; AID 2563, 2010;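 active = fall in fluorescence gain of 50% or more versus controls, with final raw signal at or below 3038400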;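 note: plate controls were neutral control wells for no effect and wells lacking membranes for full effect; tested at 10 µM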
Target sequence (Q03530 whole entry, looked up): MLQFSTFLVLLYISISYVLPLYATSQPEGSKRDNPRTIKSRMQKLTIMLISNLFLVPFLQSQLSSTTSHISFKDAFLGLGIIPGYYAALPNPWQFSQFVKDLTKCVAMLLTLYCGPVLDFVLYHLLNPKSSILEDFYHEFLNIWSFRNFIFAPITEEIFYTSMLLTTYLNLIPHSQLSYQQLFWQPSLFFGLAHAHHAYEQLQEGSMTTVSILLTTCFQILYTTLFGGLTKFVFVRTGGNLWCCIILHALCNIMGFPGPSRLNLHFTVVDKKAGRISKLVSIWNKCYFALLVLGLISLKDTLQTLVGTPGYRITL
PABP FP inh: PABP poly(A) RNA binding inhibitors, primary screen, biochemical, fluorescence polarization, uHTS. Polyadenylate-binding protein 1 (Homo sapiens), P11940. inhibition, % at 35 µM. hit rate 1% among 290,000. AID 2014, 2009;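 active = 50% or more with normal probe brightness, or confirmed in later tests; about a fifth of its hits are not listed in these tables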;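 note: calls also rest on retests at 20 µM and on dose response follow-up; controls were probe without protein and protein plus probe with vehicle; some compounds called inactive have numbers as strong as hits; many hits fall short of the cut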
MT1-MMP act inh: blockers of MT1-MMP proenzyme processing, primary screen, HT1080 RFP-PRO-GFP cells, GFP/RFP fluorescence | hit rate 0.061% among 360,000 | GFP/RFP ratio change, % at 20 µM | AID 651647, 2012 | GFP/RFP ratio fluorescence, overnight; percent of plate control window, DMSO zero | Matrix metalloproteinase-14 (Homo sapiens), P50281;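 active = GFP/RFP ratio change of at least 30% with cell ATP level not reduced by more than half and red fluorescence within 50% of control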; note: strong numbers were not always called active
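Material – HT1080 RFP-PRO-GFP cells · Control set – DMSO wells and RFP-L50D-GFP cells · Incubation – overnight cell settling, then overnight compound exposure, 37 °C, 5% CO2 · Compound dosing – single-point 20 µM compound, 1% DMSO · Read-out – GFP/RFP fluorescence ratio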
HIV Env fusion: inhibitors of HIV-1 Env-driven cell-cell fusion, primary screen, HeLa-JRFL effector, CEM21 target cells, luciferase. inhibition, % at 12.3 µM. hit rate 1.1% among 360,000;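 active = mean replicate inhibition score of at least 50 and every replicate individually at or above 50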;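 note: 0% = plate neutral controls and 100% = maraviroc near 300 nM; one replicate is shown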
UUG fidelity: modulators of yeast start codon fidelity, primary screen, whole organism, S. cerevisiae, single point, plate reader; S. cerevisiae UUG-firefly luciferase reporter, luminescence/redox ratio; activity score, % at 18.7 µM; hit rate 0.13% among 350,000; AID 602363, 2012;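 active = replicate mean at a twofold rise or more, about +100% in these data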;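 note: firefly luciferase made from a UUG start codon reports start codon fidelity; reporter light over untreated wells divided by growth signal over untreated wells; some hits fall short of that in this replicate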
CSC inhib: cancer stem cell viability inhibitors, primary screen, luminescence; inhibition, % at 7.5 µM; AID 2717, 2010; hit rate 1.1% among 300,000; cancer stem cell-like cells viability;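 active = mean at 75% or more and at least half the replicates too; tested in HMLE shEcad cells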;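 note: 0% = median of negative and 100% = median of positive control wells; the first replicate is given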
eIF4H inh: human eIF4H binding inhibitors, primary screen, translation initiation inhibitor project, biochemical, uHTS, fluorescence polarization; Eukaryotic translation initiation factor 4H (Homo sapiens), Q15056; eIF4H fluorescence polarization binding assay; inhibition, % at 35 µM; hit rate 0.94% among 290,000;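 active = 50% or more with normal probe brightness, or confirmed in later tests; about a fifth of its hits are not listed in these tables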;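 note: calls also rest on retests at 20 µM and on dose response follow-up; 0% = protein and probe with vehicle and 100% = probe without protein; strong numbers were not always called active; many hits fall short of the cut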
MT1-MMP act inh RFP: further read-out of MT1-MMP act inh, marked with its call; RFP signal change, %; measured here: RFP expression control read;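 0 = vehicle wells; hits needed this value within 50% of zero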
Numbers without * were called inactive; i = inactive; · = no result given; & = joins results of further samples; [ ] = dose if it differs, or a comment.

SMILES | Rce1 inh | PABP FP inh | MT1-MMP act inh | MT1-MMP act inh RFP | HIV Env fusion | UUG fidelity | CSC inhib | eIF4H inh
COc1ccc(C(=O)OCC2CC(c3ccccc3)=NO2)cc1OC (stereo unspecified) | i | 8 | 2 | 1 | 11 | · | -7 | -8
Cc1cccc(C)c1NC(=O)C1C2C=CC(C2)C1C(=O)O (stereo unspecified) | i | 11 | -1 | -3 | -3 | -2 | -17 | -4
COc1cccc(C(=O)OCC(=O)N2CCc3ccccc3C2)c1OC | · | · | 1 | 6 | · | -1 | -2 | ·
Cc1ccc([N+](=O)[O-])c(NC(=O)COC(=O)CCNS(=O)(=O)c2cccs2)c1C | · | · | 1 | 8 | 1 | -12 | · | ·
CCOC(=O)c1c(C)[nH]c(C)c1C(=O)CSc1nc2ccccc2c(=O)n1-c1ccc(C)cc1 | i | -8 | 2 | 5 | -3 | · | 32 | -4
CCN(CC)CCn1c(O)c(N=O)c2ccccc21 | i | 2 | 0 | 0 | · | -17 | -5 | 6
Cc1nc(C)c(-c2ccc(SCc3ccc([N+](=O)[O-])cc3)nn2)s1 | i | 6 | -2 | 0 | 5 | -16 | 12 | 1
O=C(NCC(c1cccnc1)N1CCN(c2ccc(F)cc2)CC1)OCc1ccccc1 (stereo unspecified) | i | 7 | -5 | -15 | · | · | 4 | 4
Cc1cc(=O)[nH]c(SCC(=O)Nc2ccc3c(c2)CCC3)c1C#N | · | · | 1 | -2 | · | -12 | 13 | ·
CCOC(=O)C1CCN(C(=O)c2cccc(S(=O)(=O)Nc3ccc(C)cc3C)c2)CC1 | i | 4 | 5 | 2 | 5 | · | -12 | -3

Just Rce1 inh, UUG fidelity and CSC inhib, for 4 of the compounds above:
structure	Rce1 inh	UUG fidelity	CSC inhib
COc1ccc(C(=O)OCC2CC(c3ccccc3)=NO2)cc1OC (stereo unspecified)	i	·	-7
Cc1cccc(C)c1NC(=O)C1C2C=CC(C2)C1C(=O)O (stereo unspecified)	i	-2	-17
CCOC(=O)C1CCN(C(=O)c2cccc(S(=O)(=O)Nc3ccc(C)cc3C)c2)CC1	i	·	-12
Cc1ccc([N+](=O)[O-])c(NC(=O)COC(=O)CCNS(=O)(=O)c2cccs2)c1C	·	-12	·

Next part
SMILES | Rce1 inh | PABP FP inh | MT1-MMP act inh | MT1-MMP act inh RFP | HIV Env fusion | UUG fidelity | CSC inhib | eIF4H inh
COc1cc2cc(CCCOC(=O)c3cccc(Br)c3)oc(=O)c2cc1OC | · | · | 6 | 5 | -6 | -16 | -18 | ·
S=C(NCCNC(=S)Nc1ccccc1Cl)Nc1ccccc1Cl | i | 2 | 6 | -7 | -12 | -14 | -7 | -5
COc1ccc2[nH]c3c(NCCC4=CCCCC4)ncnc3c2c1 | i | 0 | 1 | -32 | -2 | · | · | -4
O=C(O)C1c2ccccc2Cc2ccccc21 | · | · | 0 | 5 | -22 | -9 | · | ·
Cn1c(C(=O)OC(C(=O)NC(C)(C)C)c2cccnc2)cc2sccc21 (stereo unspecified) | i | 0 | 2 | 0 | -10 | · | 3 | -8
CCOC(=O)c1cnn(-c2ncnc3sc4c(c23)CCC4)c1N | i | 6 | 0 | 8 | · | · | -12 | 2
CCOC(=O)c1csc(NC(=O)CN2CCCCC2)n1 | i | 4 | -3 | 2 | -29 | -10 | · | -5
O=C(Cn1cnc2cc([N+](=O)[O-])ccc2c1=O)Nc1ccc2c(c1)CCC2 | i | -6 | 1 | 1 | · | 6 | · | -8
Cc1nn(-c2ccccc2)c2c1c(C)c(CCC(=O)N1CCOCC1)c(=O)n2C | i | 4 | -3 | -7 | · | -5 | -1 | 1
Cc1ccc(-c2cc(-c3ccccc3)nc(N/N=C/c3cccnc3)n2)cc1 | i | · | 8 | 0 | -152 | -18 | 28 | ·
COCCCn1cc(C(=O)c2cc(Br)ccc2O)cc(C#N)c1=O | i | -9 | -2 | -2 | 15 | · | -5 | 12
CCC(=O)Nc1c2c(nn1-c1cccc(Cl)c1)CSC2 | i | 2 | -2 | 1 | 4 | -22 | -12 | -11
CCCC1Cc2nc(N3CCCCC3)c(C#N)cc2CO1 (stereo unspecified) | i | -2 | 9 | 0 | · | -4 | -10 | -2
Cc1nc(-c2nc(-c3c(C(=O)NN)noc3C)cs2)cs1 | i | -8 | -2 | 0 | -16 | -29 | -1 | 1
Cc1nc(SCc2cccc(Oc3ccccc3)c2)n[nH]1 | i | -2 | -4 | -11 | · | -39 | 4 | 2
Cn1c(/C=C/c2ccccc2)nc2ccccc2c1=O | i | 1 | -5 | -2 | -32 | -7 | 10 | -5
Cc1cccc(NCc2nc3ccccc3n2C)c1 | i | -1 | 4 | 1 | · | -37 | 3 | 0
Cc1ccc(CNC(=O)Cc2ccc(-n3cccc3)cc2)cc1 | i | 2 | 0 | -10 | -80 | -9 | 48 | 11
COC(=O)c1c(C)[nH]c(C)c1C(C)=O | i | -8 | 4 | 4 | -2 | 72 | -4 | 3
Nc1c(-c2ccccc2)c(CN2CCOCC2)nn1-c1ccc(F)cc1 | i | 6 | -8 | 2 | 6 | -1 | -1 | 16
COc1ccccc1N1CCN(S(=O)(=O)c2cc(Br)cnc2N)CC1 | i | · | -4 | 1 | 11 | -23 | -14 | ·
CN(C)CCNC(=O)COc1cccc(Cl)c1 | i | 31 | 1 | 6 | · | -22 | 2 | 24
O=[N+]([O-])c1cccc(-c2nc(-c3ccncc3)no2)c1 | i | 7 | 3 | 1 | · | 12 | 4 | -3
Cc1ccc(NC(=O)Cn2nc([N+](=O)[O-])c(Br)c2C)cc1C | i | -1 | 8 | 1 | · | -11 | 8 | 3
CCS(=O)(=O)CCSc1nc2c(cc1C#N)CCCC2 | i | -6 | 2 | -4 | · | · | 0 | 3
Cc1ccccc1-c1nc(CS(=O)(=O)CC(=O)N2CCc3ccccc3C2)c(C)o1 | i | -9 | -1 | 2 | -25 | -6 | -1 | -6
O=C(c1ccc2c(=O)n(C3CCCC3)c(=S)[nH]c2c1)N1CCN(C2CCCCC2)CC1 | i | -8 | 0 | -3 | -46 | -9 | -4 | 0
CC(=O)Nc1c(C(=O)N2CCCCCC2)cnn1-c1ccccc1 | i | -3 | 0 | 3 | · | -16 | -11 | 8
CC(=O)Nc1ccc(CN2CCCC(CCC(=O)NCc3ccccc3F)C2)cc1 (stereo unspecified) | · | 4 | 0 | 2 | 6 | 3 | 4 | -14
CC(C)c1ccc(C(C(=O)NC2CCCCC2)N(C(=O)c2csnn2)C2CC2)cc1 (stereo unspecified) | i | 5 | -7 | -9 | 19 | -4 | · | -4
COC(=O)[C@@H](NC(=O)NCc1cccs1)C(C)C | i | 5 | -3 | 2 | -28 | -3 | -7 | -2
COc1ccc(F)cc1S(=O)(=O)N1CCCN(S(=O)(=O)c2cc(F)ccc2OC)CC1 | i | -2 | -2 | -3 | -40 | 12 | -8 | 8
COc1ccccc1OCc1ccc(C(=O)N2CCN(C)CC2)o1 | i | -5 | 6 | 1 | -15 | -7 | -11 | 1
C[C@@H]1CCCCO[C@H](CN(C)S(=O)(=O)c2ccccc2)[C@@H](C)CN([C@H](C)CO)C(=O)c2cc(NC(=O)Cc3ccccc3)ccc2O1 | · | · | -1 | -2 | 12[16.7 µM] | -30&-13 | · | ·
COc1ccc(CN2CCCC(C(=O)c3ccc(SC)cc3)C2)cc1Cn1cccn1 (stereo unspecified) | i | -15 | -4 | -8 | 13 | -14 | 16 | 3
Cc1c(C(=O)O)sc2nc3n(c(=O)c12)CCC3 | i | 17 | -2 | 1 | 1 | -10 | -2 | 44
CC(C)COP(=O)(OCC(C)C)C(Nc1ccccc1)c1ccc(F)cc1 (stereo unspecified) | i | 2 | -17 | -11 | -14 | · | 9 | -3
O=C(c1ccc(CNc2c(N3CCCC3)c(=O)c2=O)cc1)N1CCc2ccccc2C1 | i | 0 | 2 | 2 | 6 | -1 | -17 | -4
CCCCn1c(N)c(N2CCOCC2)c(=O)n(CC(=O)NCCc2ccccc2)c1=O | i | -12 | 1 | 3 | 4 | · | 3 | 1
COc1ccc(Oc2ccccc2/C=C/C(=O)O)cc1 | i | 11 | 5 | 2 | -84 | -10 | -6 | 1
C[C@H](CO)N1C[C@H](C)[C@@H](CN(C)S(C)(=O)=O)Oc2ccc(NC(=O)Nc3ccc(C(F)(F)F)cc3)cc2C1=O | · | · | 3 | 2 | 10 | -5&1 | · | ·
CCN(Cc1ccccc1)C1CCN(Cc2ccc(SC)cc2)CC1 | i | 10 | 3 | 3 | 23 | -10 | -3 | 12
CCCN(CCc1ccccc1)C1CCc2c(O)cccc2C1 (stereo unspecified) | i | · | 5 | 6 | 30 | -11 | 6 | ·
NC(=O)COC(=O)c1ccc2c(c1)C(=O)N(Cc1ccco1)C2=O | i | 16 | 2 | 3 | 2 | -6 | -17 | 4
CC(=O)c1sc(NC(=O)CCCOc2ccc(Cl)cc2)nc1C | i | -13 | -1 | -3 | 0 | · | 11 | -13
Cc1ccc(NC(=S)NC(=O)/C=C/c2ccc(Cl)cc2)cc1 | i | 3 | 3 | 3 | 6 | · | -9 | -8
COc1ccc(C(=O)OCC(=O)Nc2nc3c(F)c(F)c(F)cc3s2)cc1OC | i | -5 | -4 | -3 | -12 | · | 16 | 3
O=C(COc1ccccc1[N+](=O)[O-])Nc1cccc(C(=O)Nc2ccccc2C(=O)O)c1 | i | 23 | 1 | -2 | · | -7 | -5 | 7
NC(=O)CC(NC(=O)Cc1cccc2ccccc12)c1ccc(NCc2ccccn2)c([N+](=O)[O-])c1 (stereo unspecified) | i | 8 | 4 | 1 | -13 | -14 | 1 | 10
Cc1nc(CC(=O)NNS(=O)(=O)c2ccc(F)c(Cl)c2)cs1 | i | 4 | 3 | 3 | -16 | -9 | -18 | -7

More records
SMILES | Rce1 inh | PABP FP inh | MT1-MMP act inh | MT1-MMP act inh RFP | HIV Env fusion | UUG fidelity | CSC inhib | eIF4H inh
CC1Oc2ccccc2N(Cc2ccccc2F)C1=O (stereo unspecified) | i | 1 | · | · | -56 | · | -11 | -8
Cc1ccc(NC(=O)c2sc(N)nc2-c2ccc([N+](=O)[O-])cc2)c(C)c1 | i | -9 | 2 | -2 | 2 | · | -9 | -2
COC(=O)c1cc(C(=O)Nc2nnc(C3CC3)s2)cc([N+](=O)[O-])c1 | i | 2 | 2 | 1 | 5 | · | 19 | 4
Cc1ccc2[nH]c(=O)c(CN(CC3COCCO3)C(=O)Nc3ccccc3C)cc2c1 (stereo unspecified) | i | -4 | -1 | 1 | 3 | · | -2 | -4
COc1ccc(NC(=O)Nc2ccc(OCC(=O)N3CCOCC3)cc2)cc1OC | · | 2 | 2 | 2 | -14 | 11 | -1 | -2
COc1cc(O)oc1C=Nc1ccc(C(=O)O)cc1 | i | -13 | 1 | -1 | -68 | · | 13 | 7
CCOC(=O)CC(=O)CSc1nc(N)c(C#N)c(-c2ccc(F)cc2)c1C#N | i | 64* | -3 | -5 | 20 | -16 | -9 | 62*
COc1ccccc1OCCNC(=O)C(c1ccccc1)c1ccccc1 | i | 4 | 2 | -4 | 6 | · | 10 | -3
Cn1c(NC(=O)c2ccc(F)cc2)nc2ccccc21 | i | 1 | -1 | 0 | -87 | -15 | -9 | -9
O=C(NC1(C(F)(F)F)N=C(c2ccccc2)NC1=O)c1ccccc1 (stereo unspecified) | i | -6 | 0 | 1 | -14 | -16 | 4 | 4
Cn1ncc2c(N3CCC(Cc4ccccc4)CC3)ncnc21 | i | -9 | 0 | -10 | 15 | · | 67 | 4
